Source: PubChem BioAssay
GALR2 agonist = activates the human galanin receptor 2; AID 803; GALR2-expressing cells, agonist activation read-out; O43603; 140,000 compounds, 0.48% hits; activation, %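 (tested at 5 µM)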;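 active = above mean plus 3 SD of all compounds, about 5% in these data, not always enough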;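 also: 0% = vehicle buffer wells and 100% = reference agonist at full effect; tested in CHO reporter cells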
Target sequence (O43603 whole entry, looked up): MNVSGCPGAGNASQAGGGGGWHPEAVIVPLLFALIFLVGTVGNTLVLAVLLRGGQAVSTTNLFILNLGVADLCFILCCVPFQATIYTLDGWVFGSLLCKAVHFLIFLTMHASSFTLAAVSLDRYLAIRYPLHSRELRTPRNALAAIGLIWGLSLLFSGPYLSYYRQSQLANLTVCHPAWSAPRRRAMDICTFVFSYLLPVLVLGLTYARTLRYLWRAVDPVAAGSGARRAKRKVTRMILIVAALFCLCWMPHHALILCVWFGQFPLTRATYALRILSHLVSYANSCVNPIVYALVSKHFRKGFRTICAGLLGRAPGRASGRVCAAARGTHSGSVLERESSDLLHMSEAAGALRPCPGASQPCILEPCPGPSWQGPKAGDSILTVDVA
RGS16-Gao HTS = modulates binding between human RGS16 and Galphao. O15492+P09471. bead-based flow cytometry RGS16-Galphao binding, fluorescence; actives lie on both sides. binding response (% of control), % at 10 µM. 220,000 compounds, 0.38% hits;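 active = below 25% or above 175%, edge rows of some plates excepted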;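 also: Galphao activated by GDP with aluminum fluoride before binding; 100% = wells without compound and 0% = beads without RGS; some results beyond the cut were filed as inactive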
Target sequence (O15492 whole entry, looked up): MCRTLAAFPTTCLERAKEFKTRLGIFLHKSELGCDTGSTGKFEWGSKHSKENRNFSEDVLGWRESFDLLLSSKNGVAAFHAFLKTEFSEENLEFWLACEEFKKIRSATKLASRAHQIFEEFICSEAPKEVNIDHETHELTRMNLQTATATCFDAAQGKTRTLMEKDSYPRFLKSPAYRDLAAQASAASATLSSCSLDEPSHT
Target sequence (P09471 whole entry, looked up): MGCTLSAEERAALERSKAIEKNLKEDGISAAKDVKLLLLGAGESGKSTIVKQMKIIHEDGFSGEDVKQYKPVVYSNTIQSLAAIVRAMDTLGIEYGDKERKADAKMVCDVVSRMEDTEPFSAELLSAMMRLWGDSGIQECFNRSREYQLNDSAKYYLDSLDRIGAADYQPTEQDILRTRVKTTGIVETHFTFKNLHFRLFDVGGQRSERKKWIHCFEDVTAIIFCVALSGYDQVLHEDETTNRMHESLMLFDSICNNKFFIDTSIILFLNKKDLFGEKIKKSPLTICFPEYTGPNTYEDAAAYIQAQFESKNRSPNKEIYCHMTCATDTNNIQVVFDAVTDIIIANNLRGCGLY
PKD1 inh = PKD1 (human) kinase inhibition | Q15139 | 200,000 compounds, 0.056% hits | PKD1 kinase fluorescence polarization assay | AID 797 | inhibition, %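 (about 10 µM by stock and volumes)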;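 active = inhibition of 50% or more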;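 also: controls were vehicle for no effect and a reference inhibitor for full effect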
Insulin prom inh = TRM-6 insulin promoter activity inhibition; inhibition, % at 2 µM; AID 1273; 130,000 compounds, 0.9% hits; TRM-6 cells (human fetal islet line), insulin promoter-eGFP reporter, imaging; reporter expression induced with tamoxifen;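 active = inhibition above the mean plus 3 SD, with well images judged a real hit on visual review, cut at about 60% in these data, passing the limit was not always enough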
HSV augment = HSV replication enhancement. AID 1956. 220,000 compounds, 0.005% hits. maximum fold increase. HSV replication augmentation in cells, fold increase;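 active = peak rise of 1.5-fold or more in the series; tested in PC3 cells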;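 also: first round at 10 µM; read as green reporter fluorescence; hits show the peak of a series up to 25 µM; 1 = signal of infected wells without compound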
Insulin prom inh cell count = also measured in Insulin prom inh; calls as there; normalized cell count, %; measured here: cell count, toxicity; reference of the scale not given here;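 cells exposed to compound for 48 h; stained nuclei by imaging scaled within each plate; lower means fewer cells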
HSV augment primary fold = also measured in HSV augment; calls as there; fold increase; compound at 10 µM; measured here: primary screen fold increase 10 uM; tested in PC3 cells;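 GFP signal in the first replicate; 1 = infected wells without compound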
* marks the source's active call; other numbers are inactive results; i = inactive; · = not tested or not shown. Hits appear at their usual frequency; about 1.3% have a hit in one of these screens.

SMILES	GALR2 agonist	RGS16-Gao HTS	PKD1 inh	Insulin prom inh	Insulin prom inh cell count	HSV augment	HSV augment primary fold
COc1ccc(N2CC(O)=C(c3n(C)c4ccccc4[n+]3C)C2=N)cc1	-2.3	100	-1	22	120	i	0.89
FC(F)(F)c1cc(-c2ccccc2)nc(NC2CCCC2)n1	-1.9	105	-4	32	113	i	0.91
Brc1ccc(-c2nnc3sc(CN4CCC5(CC4)OCCO5)cn23)cc1	-1.6	95	-2	60	150	i	1
Cc1ccc(C2OC3=C(C(=O)CC(C)(C)C3)C(N)=C2C#N)o1 (stereo not given)	·	91	-2	-5	93	i	1.1
O=C(c1sc2ccccc2c1Cl)N(Cc1cccs1)C1CCS(=O)(=O)C1 (stereo not given)	-1.7	92	-24	·	·	i	0.94
COC(=O)c1[nH]c2cc(OC)ccc2c1NC(=O)CCN1CCN(c2cccc(C)c2C)CC1	2.1	101	1	19	110	i	0.74
COc1ccccc1N1CCN(C2CCN(S(=O)(=O)c3ccc4ccccc4c3)CC2)CC1	-1.2	103	-7	-18	168	i	0.94
COc1ccc(-c2cc(C(F)(F)F)nc(SCC(=O)NCCN3CCOCC3)n2)cc1OC	-2.5	100	-16	73	120	i	0.98
O=[N+]([O-])c1ccc(-c2nc(NCc3ccccc3)c3ccccc3n2)cc1	-0.9	102	4	·	·	i	0.92
COc1nn(CC(=O)N2N=C(C(F)F)CC2(O)C(F)F)cc1[N+](=O)[O-] (stereo not given)	-0.5	89	-4	-300	81	i	0.81
Cc1nc2nc(C)c(CCC(=O)NCc3ccc4c(c3)OCO4)c(C)n2n1	0.5	108	4	·	·	i	1
FC(F)(F)c1cccc(-c2cc3ccccc3nc2N2CCCC2)c1	-3.2	105	-7	-25	115	i	1
COc1cc2c(cc1OC)CN(Cc1cc(=O)oc3cc(C)c(C)cc13)CC2	-0.8	101	-12	-10	98	i	0.96
COc1ccc([N+](=O)[O-])cc1NS(=O)(=O)c1ccccc1	-0.1	105	-13	37	136	i	1
O=C(COc1ncnc2ccccc12)N1CCOCC1	0.0	108	-10	6	89	i	0.89
CCC(Oc1ccccc1)C(=O)NCc1ccc(S(N)(=O)=O)cc1 (stereo not given)	-0.8	97	0	·	·	i	1.1
O=C1c2ccccc2C(=O)N1c1ncc(Cc2ccc(Cl)cc2)s1	-0.3	110	-11	-12	62	i	0.98
COc1ccc(C2CC(=O)c3cnc(Nc4cc(C)cc(C)c4)nc3C2)cc1 (stereo not given)	-1.8	110	-1	36	115	i	0.76
Cc1ccc(S(=O)(=O)N2CC=C(C(=O)NC3CC3)CC2)cc1	·	95	·	·	·	i	1.1
Cc1ccc2cc(CCNC(=O)C3CCCC3)c(=O)[nH]c2c1	-0.9	103	0	20	58	i	0.85
Cc1ccc(NC(=O)C2CCCN(S(=O)(=O)c3c(C)noc3C)C2)c(C)c1 (stereo not given)	-0.6	101	73*	·	·	i	1
Cc1ccc2[nH]cc(C(=O)NCc3cccs3)c(=O)c2c1	-0.8	106	-4	37	70	i	0.9
O=C1CCC(C(=O)NC2(C(=O)NC3CCCCC3)CCCCC2)N1 (stereo not given)	0.4	105	-21	·	·	i	0.93
O=C(Nc1ccc(N2CCOCC2)nc1)c1cccs1	·	96	-2	-7	144	i	0.79
CCN(CC)CCN(C)C(=O)CCc1nnc(-c2ccc(C)s2)o1	·	39	-6	10	122	i	0.91
CCN(CC)S(=O)(=O)N1CCC(C(=O)NCc2ccc(C)cc2)CC1	-1.3	101	2	31	79	i	1.1
Cc1cc(C)nc(NC(=O)C(C)C)n1	-2.3	99	-4	15	115	i	1
COc1ccc2ccccc2c1/C=N\n1c(C)cc(C)c(C(N)=O)c1=O	-1.8	102	-4	-3	73	i	0.71
Cc1ccc(C)c(NC(=O)C2CCCN2S(=O)(=O)c2ccc3c(c2)n(C)c(=O)c(=O)n3C)c1 (stereo not given)	-0.3	97	-8	-17	102	·	·
Cc1snc(SCC(=O)N/N=C(\N)COc2cccc(C(F)(F)F)c2)c1C#N	-1.2	94	9	·	·	i	0.86

Overlap with the part before: 2 compounds; new compounds follow.
SMILES	GALR2 agonist	RGS16-Gao HTS	PKD1 inh	Insulin prom inh	Insulin prom inh cell count	HSV augment	HSV augment primary fold
Cc1ccc(C)c(NC(=O)C2CCCN2S(=O)(=O)c2ccc3c(c2)n(C)c(=O)c(=O)n3C)c1 (stereo not given)	-0.3	97	-8	-17	102	·	·
Cc1snc(SCC(=O)N/N=C(\N)COc2cccc(C(F)(F)F)c2)c1C#N	-1.2	94	9	·	·	i	0.86
Cc1ccc(N2C(=O)SC(N(CC(=O)O)c3ccc(C)cc3)C2=O)cc1 (stereo not given)	·	97	-4	·	·	i	0.89
CCOC(=O)N/N=C(\CCC(=O)O)c1cccs1	·	100	·	·	·	i	1.2
O=[N+]([O-])c1cc(/C=N/N2CCN(c3ccccc3)CC2)ccc1Cl	-0.6	106	-15	-3	177	i	0.9
Cn1c(Cc2ccc3c(c2)OCO3)nnc1SCC(=O)NC1CCCC1	·	93	5	21	88	i	1
CCC(CO)n1c(=S)[nH]c2cc(OC)c(OC)cc2c1=O (stereo not given)	·	19	1	7	70	i	0.94
CCOc1ccccc1NC(=S)N1CCC(NC(=O)C(C)(C)C)CC1	·	150	-6	·	·	i	0.98
CCCN(CCC)S(=O)(=O)c1ccc(C(=O)Nc2nnc(-c3cccc(OC)c3)o2)cc1	0.2	101	0	38	108	i	0.75
O=C1CC2(CCCC2)CC(=O)N1CCCCN1CCN(c2ncccn2)CC1	-2.5	85	-9	27	120	i	0.91
COc1ccc(/C=N/NC(=O)c2cccc(Br)c2)cc1CN1CCOCC1	·	100	·	·	·	i	1
Cc1ccc(OC(=O)Cn2c(C(F)(F)F)nc3ccccc32)cc1	-2.2	106	7	29	91	i	0.88
O=C1NNC(c2ccccc2)=N/C1=C\c1ccccc1Cl	·	95	·	·	·	i	1
CCOC(=O)C1CCN(c2c([N+](=O)[O-])c(C(Cl)Cl)nn2-c2ccccc2)CC1	0.2	88	5	25	125	·	·
COCCCn1cc(C(=O)c2cc(OC)ccc2OCC(=O)Nc2cc(C)on2)cc(C#N)c1=O	-2.8	102	2	32	112	i	1.1
Nc1c(C(=O)NCc2ccco2)c2nc3ccccc3nc2n1CCc1ccc(F)cc1	24*	95	1	-11	96	i	0.92
COCC(=O)Nc1nc(-c2ccc([N+](=O)[O-])cc2)cs1	·	106	5	16	117	i	1
CN(C(=O)CSc1nnc(-c2ccncc2)n1Cc1ccccc1)C1CCS(=O)(=O)C1 (stereo not given)	·	96	-7	·	·	i	0.89
COc1cc(S(=O)(=O)N2CCN(C(=O)c3ccccc3)CC2)c(OC)cc1Br	·	102	5	8	92	i	0.95
Cc1ccsc1/C=N/NC(=O)c1ccc(-n2cccc2)cc1	·	100	-3	·	·	i	0.99
NNC(=O)CCn1nnc2ccccc21	·	100	·	·	·	i	0.91
COCCN(C(=O)Cc1cccs1)C(C(=O)NC1CCCC1)c1ccc(OC)c(OC)c1 (stereo not given)	·	102	-2	·	·	i	0.99
CCOC(=O)C(NC(C)=O)C(=O)Nc1ccc(OC)cc1 (stereo not given)	·	102	0	·	·	i	0.85
COc1ccc(OCCNc2cc(N3CCCCC3)ccc2[N+](=O)[O-])cc1	-3.0	102	-4	·	·	·	·
O=C1CC(c2ccc(Cl)cc2)CC(O)=C1C=NCCN1CCNCC1 (stereo not given)	-1.2	272	-1	50	106	i	0.96
Cc1c(N/N=C(\C#N)C(=O)c2ccccc2)c(=O)n(-c2ccccc2)n1C	-0.5	103	55*	10	134	i	1.2
OCc1c(Cl)nc2ccccn12	·	100	-2	·	·	i	1
COc1ccc(NC(=O)C(=O)NNC(=O)c2cccs2)c(OC)c1	-2.0	104	6	·	·	i	1
COc1cc(OC)cc(C(=O)NNC(=O)c2cc3c(s2)CCCC3)c1	·	99	-6	·	·	i	0.93
Cc1cc2cc(CNC(=O)Nc3ccc(Cl)c(Cl)c3)ccc2n1C	·	146	0	·	·	i	1.1
Cn1c(C(=O)O)ccc1S(=O)(=O)N1CCCCCC1	·	87	·	·	·	i	0.98
S=C(Nc1ccccc1)N1CCN(c2ccccn2)CC1	·	108	-1	-7	111	i	0.92
COC(=O)c1c(C)nc2ccccc2c1-c1ccccc1	-2.1	102	-2	1	131	i	1
Cc1nn(Cc2ccc([N+](=O)[O-])cc2)c(=O)n1N(C)c1ncc(C(F)(F)F)cc1Cl	0.3	103	-9	-66	67	i	0.94
CCN(CC)C(=S)Sc1c(-c2ccccc2)c2cc(Cl)ccc2[nH]c1=O	-1.7	92	-3	-6	115	i	0.9
O=C(COC(=O)c1cccs1)Nc1nc(-c2ccccc2)cs1	0.8	98	-7	·	·	i	1
CCN(CC)CC#CC(OC)(c1ccccc1)c1ccccc1	·	105	-6	7	138	i	0.91
Cc1ccsc1C1NC(=O)c2c(sc3c2CCCC3)N1 (stereo not given)	-0.4	161	2	-19	95	i	0.95
Cc1ccc(-c2csc(NC(=O)Cn3cnc4c3c(=O)n(C)c(=O)n4C)n2)cc1C	-1.9	104	-10	-45	117	i	0.58
CCCP(=O)(CC(=O)N(CC)CC)c1ccccc1 (stereo not given)	0.8	101	-5	·	·	i	0.99
COc1ccc(C2CC(=O)C(C=NCCN3CCNCC3)=C(O)C2)cc1OC (stereo not given)	-0.9	125	-9	·	·	i	1
Cc1nnsc1C(=O)N/N=C/c1ccc(OC(F)(F)F)cc1	·	109	-3	-44	48	i	1.1
O=S(=O)(Cc1ccccc1Cl)N1CCCCC1	-2.3	105	2	21	57	i	0.96
COCCn1c(SCc2nc3ccccc3c(=O)[nH]2)nc2ccccc2c1=O	·	96	-4	·	·	i	0.98
COc1ccc(-c2csc(-c3ccccc3)n2)c(OC)c1	·	100	9	·	·	i	1.1
Cc1ccc(S(=O)(=O)Nc2ccc(-c3cn4ccc(C)cc4n3)cc2)cc1	-1.4	61	-5	-26	68	i	1
COc1cccc(NC(=O)c2cc(C(=O)Nc3cccc(OC)c3)n(C)n2)c1	-3.0	94	-6	29	140	i	0.95

Nothing new here: entries from further up.
SMILES	GALR2 agonist	RGS16-Gao HTS	PKD1 inh	Insulin prom inh	Insulin prom inh cell count	HSV augment	HSV augment primary fold
COc1ccc(C2CC(=O)C(C=NCCN3CCNCC3)=C(O)C2)cc1OC (stereo not given)	-0.9	125	-9	·	·	i	1
Cc1nnsc1C(=O)N/N=C/c1ccc(OC(F)(F)F)cc1	·	109	-3	-44	48	i	1.1

Remaining list, next part:
SMILES	GALR2 agonist	RGS16-Gao HTS	PKD1 inh	Insulin prom inh	Insulin prom inh cell count	HSV augment	HSV augment primary fold
C=CCOc1ccc(/C(O)=C2/C(=O)C(=O)N(CCCN3CCOCC3)C2c2ccccc2)cc1 (stereo not given)	-3.0	·	-6	50	140	i	0.83
OCCN(Cc1ccccc1)C(=S)Nc1ccc(Cl)cc1Cl	·	103	-3	·	·	i	1.1
CCCCC(=O)Nc1sc(C(=O)N(CC)CC)c(C)c1C(=O)OC	-1.4	63	7	-105	126	i	0.96
O=C(CSc1nc(-c2ccccc2)c(-c2ccccc2)o1)NC1CCS(=O)(=O)C1 (stereo not given)	·	98	1	·	·	i	1
CCC(C)NC(=O)CNC(=S)N(Cc1ccccc1)Cc1cccnc1 (stereo not given)	-0.5	126	-12	16	66	i	0.97
O=C(Cc1ccccc1[N+](=O)[O-])NCc1ccncc1	·	106	-6	·	·	i	1
C[n+]1ccc(/C=C/c2c[nH]c3ccccc23)cc1	-1.9	100	13	-220	51	·	·
O=C(COC(=O)c1c2c(nc3ccccc13)CCN(Cc1ccccc1)C2)Nc1c(F)cccc1F	-1.2	110	-6	-60	51	i	1.2
O=c1[nH]c(Cc2ccc(Cl)cc2)nc2ccccc12	·	103	-5	24	112	i	0.9
CCCCS(=O)(=O)NC1=NCN(C2CCN(Cc3ccccc3)CC2)CN1	-1.6	·	-12	-79	102	·	·
CSc1ccccc1C(=O)NCc1ccccc1C	·	98	0	·	·	i	0.96
Cc1ccc(-c2nn(-c3ccccc3)cc2/C=C(\C#N)C(=O)NCc2ccccc2)cc1	0.8	112	-8	-8	117	i	0.85
O=C(NCCC1=CCCCC1)C1CCCN(c2nc3ccccc3o2)C1 (stereo not given)	-0.2	100	0	-100	48	i	1.1

Whole records from above. Order of screens: GALR2 agonist, RGS16-Gao HTS, PKD1 inh, Insulin prom inh, Insulin prom inh cell count, HSV augment, HSV augment primary fold
Profile of COc1cc2c(cc1OC)CN(Cc1cc(=O)oc3cc(C)c(C)cc13)CC2 → -0.8, 101, -12, -10, 98, i, 0.96
Profile of Cc1cc2cc(CNC(=O)Nc3ccc(Cl)c(Cl)c3)ccc2n1C → ·, 146, 0, ·, ·, i, 1.1
Profile of O=S(=O)(Cc1ccccc1Cl)N1CCCCC1 → -2.3, 105, 2, 21, 57, i, 0.96
